# FGF22 binding: shifts melting point of recombinant human FGF22; calls only at 9.99 µM; actives 1.5% (n = 340,000); recombinant FGF22 thermal shift, SYPRO orange fluorescence; percent of sucrose octasulfate shift, DMSO zero;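 active means melting point raised past a set limit in the mean and every replicate; three in four hits are not shown here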
# Target sequence (Q9HCT0 whole entry, looked up): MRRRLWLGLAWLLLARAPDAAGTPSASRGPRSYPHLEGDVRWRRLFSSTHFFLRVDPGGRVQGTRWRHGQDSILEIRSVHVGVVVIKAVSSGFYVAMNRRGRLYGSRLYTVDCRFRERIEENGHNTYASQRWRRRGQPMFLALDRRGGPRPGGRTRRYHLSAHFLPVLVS
# Calls only; i = inactive; + = active, no number.
COc1ccc(S(=O)(=O)Nc2ccc3c(c2)CC(=O)N([C@H](C)CO)C[C@@H](C)[C@H](CN(C)S(=O)(=O)c2ccc(F)cc2)O3)cc1
  FGF22 binding: i

COc1ccc2c3c(n(C)c2c1)[C@H](CO)N(Cc1ccc2c(c1)OCO2)CC31CN(C(=O)C2CC2)C1
  FGF22 binding: i

C=CCN1C(=O)c2[nH]nc(-c3ccccc3)c2C1c1ccc(C)cc1 (stereo not drawn)
  FGF22 binding: i

COCC(=O)N(C)C[C@H]1Oc2cc(C#CC(C)(C)O)ccc2S(=O)(=O)N([C@@H](C)CO)C[C@H]1C
  FGF22 binding: i

C[C@@H]1CN([C@@H](C)CO)C(=O)Cc2cc(NC(=O)Nc3ccc(C(F)(F)F)cc3)ccc2O[C@@H]1CN(C)S(=O)(=O)c1cn(C)cn1
  FGF22 binding: i

C[C@@H]1CN([C@@H](C)CO)C(=O)c2cc(NC(=O)CCC(F)(F)F)ccc2O[C@@H](C)CCCCO[C@H]1CN(C)C(=O)C1CCCCC1
  FGF22 binding: i

Cc1ccc(S(=O)(=O)Nc2ccc3c(c2)CC(=O)N([C@@H](C)CO)C[C@@H](C)[C@@H](CN(C)C(=O)Nc2ccc(F)cc2)O3)cc1
  FGF22 binding: i

C[C@@H]1CN([C@H](C)CO)C(=O)c2cc(NC(=O)Nc3ccc(C(F)(F)F)cc3)ccc2O[C@@H](C)CCCCO[C@H]1CN(C)Cc1ccc(C(=O)O)cc1
  FGF22 binding: i

C[C@@H]1CN([C@H](C)CO)C(=O)c2cccc(NC(=O)c3ccncc3)c2O[C@@H]1CN(C)Cc1ccc(Cl)c(Cl)c1
  FGF22 binding: i

CN1CCN(C(=O)C[C@H]2CC[C@H]3[C@@H](COC[C@H](O)CN3C(=O)Nc3ccc(Cl)cc3)O2)CC1
  FGF22 binding: i

CCCC(=O)N1CCC2(CC1)CN(C(=O)CC)[C@@H](CO)c1c2c2ccc(OC)cc2n1C
  FGF22 binding: i

CO[C@@H]1CN(C)C(=O)c2cc(NS(=O)(=O)c3ccc(Cl)cc3)ccc2OC[C@@H](C)NC[C@@H]1C
  FGF22 binding: i

CCC(=O)N[C@H]1CC[C@@H](CC(=O)NCC2CCCCC2)O[C@@H]1CO
  FGF22 binding: i

CNC[C@H]1Oc2ccc(NC(=O)Cc3cn(C)c4ccccc34)cc2C(=O)N([C@H](C)CO)C[C@@H]1C
  FGF22 binding: i

C[C@@H]1CN([C@H](C)CO)C(=O)c2cccc(NS(=O)(=O)c3ccccc3)c2O[C@@H]1CN(C)Cc1ccc(Cl)c(Cl)c1
  FGF22 binding: i

C[C@H]1CN([C@@H](C)CO)C(=O)c2cc(NC(=O)CCCCCC(=O)Nc3ccccc3N)ccc2O[C@@H]1CN(C)S(=O)(=O)c1ccccc1
  FGF22 binding: i

O=C(C[C@@H]1CC[C@H]2[C@@H](COC[C@@H](O)CN2C(=O)c2ccncc2)O1)NC1CCC1
  FGF22 binding: i

C[C@@H]1CN([C@@H](C)CO)C(=O)c2cccc(N(C)C)c2O[C@@H]1CN(C)S(=O)(=O)c1cn(C)cn1
  FGF22 binding: i

CCc1cnc(N2[C@H](C#N)[C@H](c3ccc(C#CCC4CCCC4)cc3)[C@@H]2CO)s1
  FGF22 binding: i

C[C@@H]1CN([C@@H](C)CO)C(=O)c2cc(NC(=O)c3ccncc3)ccc2O[C@@H](C)CCCCO[C@@H]1CN(C)C(=O)C1CCCCC1
  FGF22 binding: i

COc1ccc(CNC(=O)C[C@@H]2CC[C@@H](NS(=O)(=O)c3cccc(OC)c3)[C@H](CO)O2)cc1
  FGF22 binding: i

C[C@H](CO)N1C[C@H](C)[C@H](CN(C)Cc2ccc(Oc3ccccc3)cc2)Oc2ccc(NC(=O)Nc3ccc4c(c3)OCO4)cc2CC1=O
  FGF22 binding: i

O=C(Cc1ccncc1)NCC[C@@H]1CC[C@@H](NC(=O)Nc2cccc(F)c2)[C@H](CO)O1
  FGF22 binding: i

CCS(=O)(=O)N1CC2(CN(Cc3ccccc3F)[C@@H](CO)c3c2c2ccc(OC)cc2n3C)C1
  FGF22 binding: i

C[C@H](O)[C@@H]1CN2CCc3ccc(-c4ccc5c(c4)OCO5)cc3[C@@H]2C[C@@H]1N(C)C(=O)NC1CCCCC1
  FGF22 binding: i

C[C@H]1CN([C@@H](C)CO)C(=O)c2cc(NC(=O)C3CC3)ccc2O[C@H]1CN(C)C(=O)Nc1ccccc1
  FGF22 binding: i

CCCC(=O)Nc1ccc2c(c1)OC[C@H](C)N(C(=O)CN(C)C)C[C@@H](C)[C@@H](OC)CN(C)C2=O
  FGF22 binding: i

CO[C@H]1CN(C)C(=O)c2ccc(NC(C)=O)cc2OC[C@@H](C)N(C(=O)C2CCOCC2)C[C@H]1C
  FGF22 binding: i

C[C@@H]1CN([C@@H](C)CO)C(=O)c2cccc(NS(=O)(=O)c3ccc(Cl)cc3)c2O[C@H]1CN(C)Cc1ccccc1
  FGF22 binding: i

COc1ccc(-c2ccc3c(c2)[C@@H]2[C@@H](CCN2S(=O)(=O)c2ccc(OC)cc2)[C@@H](CO)N3C)cc1
  FGF22 binding: i

COc1ccc(NC(=O)N(C)C[C@H]2OCCCC[C@@H](C)Oc3ccc(NC(=O)Nc4c(C)noc4C)cc3C(=O)N([C@H](C)CO)C[C@H]2C)cc1
  FGF22 binding: i

COCCNC(=O)C[C@H]1C=C[C@@H](NS(=O)(=O)c2ccc(C)cc2)[C@H](CO)O1
  FGF22 binding: i

Cc1ccc(S(=O)(=O)Nc2ccc3c(c2)CC(=O)N([C@@H](C)CO)C[C@@H](C)[C@@H](CN(C)S(=O)(=O)c2ccc(F)cc2)O3)cc1
  FGF22 binding: i

COCC(=O)Nc1ccc2c(c1)C(=O)N(C)[C@H]1CC[C@H](CC(=O)Nc3ccccc3)O[C@H]1CO2
  FGF22 binding: i

C[C@@H]1CN([C@H](C)CO)C(=O)c2cccc(NC(=O)Nc3ccc(F)cc3)c2O[C@@H]1CN(C)CC1CC1
  FGF22 binding: i

C[C@@H]1CN([C@@H](C)CO)C(=O)c2cc(NS(=O)(=O)c3ccc(F)cc3)ccc2O[C@@H]1CN(C)CC1CCCCC1
  FGF22 binding: i

COC(=O)[C@@]1(Cc2ccccc2CN=[N+]=[N-])N=C(c2ccc(OCCCO)cc2)O[C@H]1c1ccccc1
  FGF22 binding: i

C[C@@H]1CCCCO[C@H](CN(C)C(=O)C2CCCCC2)[C@@H](C)CN([C@H](C)CO)C(=O)c2cc(NC(=O)CCCCCC(=O)Nc3ccccc3N)ccc2O1
  FGF22 binding: i

C[C@@H]1CN([C@@H](C)CO)C(=O)Cc2cc(NC(=O)C3CCCCC3)ccc2O[C@@H]1CN(C)S(=O)(=O)c1ccc(F)cc1
  FGF22 binding: i

C[C@@H]1CN([C@@H](C)CO)C(=O)CCCn2cc(nn2)CO[C@H]1CN(C)Cc1ccc2c(c1)OCCN2C
  FGF22 binding: i

CN1C(=O)c2cc(NC(=O)Cc3ccccc3)ccc2OC[C@H]2O[C@@H](CC(=O)NCc3ccc(Cl)cc3)CC[C@H]21
  FGF22 binding: i

CC(C)CC#Cc1cnc2c(c1)C(=O)N([C@@H](C)CO)C[C@H](C)[C@@H](CN(C)C(=O)c1ccc3c(c1)OCO3)O2
  FGF22 binding: i

C[C@H]1CN([C@@H](C)CO)C(=O)Cc2cc(NC(=O)CCC(F)(F)F)ccc2O[C@@H]1CN(C)S(=O)(=O)c1ccc(Cl)cc1
  FGF22 binding: i

C[C@H]1CN([C@@H](C)CO)C(=O)c2cccc(NC(=O)c3nc4ccccc4s3)c2O[C@H]1CN(C)S(=O)(=O)c1ccc(Cl)cc1
  FGF22 binding: i

COc1ccc(NC(=O)Nc2ccc3c(c2)[C@@H]2C[C@@H](CC(=O)NCC(F)(F)F)O[C@@H](CO)[C@@H]2O3)cc1
  FGF22 binding: i

O=C([C@H]1[C@H](CO)[C@H]2Cn3c(ccc(C4=CCCCC4)c3=O)[C@@H]1N2)N1CCCCC1
  FGF22 binding: i

Cc1noc(C)c1S(=O)(=O)N(C)C[C@H]1OCCCC[C@H](C)Oc2ccc(NC(=O)Cc3ccccc3)cc2C(=O)N([C@H](C)CO)C[C@H]1C
  FGF22 binding: i

COc1ccc(CN2C[C@@H](O)COC[C@H]3O[C@H](CC(=O)N4CCc5ccccc5C4)CC[C@@H]32)cc1
  FGF22 binding: i

CCS(=O)(=O)NCC[C@@H]1CC[C@@H](NC(=O)Nc2ccccc2)[C@H](CO)O1
  FGF22 binding: i

C[C@H]1CN([C@@H](C)CO)C(=O)c2cc(NC(=O)CCN3CCOCC3)ccc2O[C@H]1CN(C)Cc1ccc(Oc2ccccc2)cc1
  FGF22 binding: i

CC(=O)N(C)C[C@H]1Oc2ncc(-c3ccc(F)cc3)cc2C(=O)N([C@H](C)CO)C[C@H]1C
  FGF22 binding: i

CCN(C[C@@H]1N[C@@H](CO)[C@H]1c1ccccc1)C(=O)c1ccncc1
  FGF22 binding: i

C[C@H]1CN([C@@H](C)CO)S(=O)(=O)c2ccc(C#CC3CC3)cc2O[C@@H]1CN(C)C(=O)c1ccccn1
  FGF22 binding: i

CO[C@@H]1CN(C)C(=O)c2ccc(NC(C)=O)cc2OC[C@H](C)N(Cc2ccc(F)cc2)C[C@H]1C
  FGF22 binding: i

CCC(=O)Nc1ccc2c(c1)OC[C@@H](C)N(CCC(F)(F)F)C[C@@H](C)[C@@H](OC)CN(C)C2=O
  FGF22 binding: i

C[C@@H](NC(=O)C[C@@H]1CC[C@@H]2[C@H](COc3ccc(NS(=O)(=O)c4ccc(Cl)cc4)cc3C(=O)N2C)O1)c1ccccc1
  FGF22 binding: i

Cc1noc(C)c1S(=O)(=O)Nc1ccc2c(c1)CC(=O)N([C@@H](C)CO)C[C@H](C)[C@@H](CN(C)CC1CCCCC1)O2
  FGF22 binding: i

C[C@H](CO)N1C[C@H](C)[C@H](CN(C)C(=O)C2CCCCC2)Oc2ncc(C#CC3CCCC3)cc2C1=O
  FGF22 binding: i

CCNC(=O)C[C@H]1CC[C@@H]2[C@@H](COc3ccc(NC(=O)Nc4cccc(OC)c4)cc3C(=O)N2C)O1
  FGF22 binding: i

C[C@@H]1CN([C@H](C)CO)S(=O)(=O)c2ccc(-c3ccncc3)cc2O[C@@H]1CN(C)S(C)(=O)=O
  FGF22 binding: i

CCCNC(=O)C[C@@H]1CC[C@@H]2[C@H](COc3ccc(NC(=O)CC)cc3C(=O)N2C)O1
  FGF22 binding: i

C[C@@H]1CCCCO[C@@H](CN(C)Cc2ccc(C(F)(F)F)cc2)[C@@H](C)CN([C@H](C)CO)C(=O)c2cc(NS(=O)(=O)c3ccc(Cl)cc3)ccc2O1
  FGF22 binding: i

Cc1noc(C)c1NC(=O)N(C)C[C@@H]1OCCCC[C@H](C)Oc2ccc(NC(=O)c3ccncc3)cc2C(=O)N([C@H](C)CO)C[C@@H]1C
  FGF22 binding: i

Cc1noc(C)c1NC(=O)Nc1cccc2c1O[C@@H](CN(C)C(=O)Nc1ccc(C(F)(F)F)cc1)[C@H](C)CN([C@H](C)CO)C2=O
  FGF22 binding: i

COc1ccc(NC(=O)N(C)C[C@@H]2Oc3ccc(NS(=O)(=O)c4c(C)noc4C)cc3C(=O)N([C@@H](C)CO)C[C@H]2C)cc1
  FGF22 binding: i

Cc1ccc(S(=O)(=O)N(C)C[C@@H]2Oc3ccc(NC(=O)c4ccncc4)cc3C(=O)N([C@@H](C)CO)C[C@H]2C)cc1
  FGF22 binding: i

C[C@@H]1CN([C@@H](C)CO)C(=O)c2cc(NC(=O)Cn3cnnn3)ccc2O[C@@H]1CN(C)S(C)(=O)=O
  FGF22 binding: i

CNC(=O)C[C@@H]1CC[C@H]2[C@@H](COc3ccc(NC(=O)C(C)C)cc3C(=O)N2C)O1
  FGF22 binding: i

C[C@H](CO)N1C[C@H](C)[C@H](CN(C)CC2CCCCC2)OCCCC[C@H](C)Oc2ccc(NC(=O)Nc3ccc(F)cc3)cc2C1=O
  FGF22 binding: i

C[C@@H]1CN([C@H](C)CO)C(=O)c2cccc(NC(=O)c3nc4ccccc4s3)c2O[C@H]1CN(C)S(=O)(=O)c1ccc(Cl)cc1
  FGF22 binding: i

C[C@H](CO)N1C[C@H](C)[C@H](CN(C)C(=O)Nc2ccc(F)cc2)OCCCC[C@H](C)Oc2ccc(NC(=O)Nc3ccc(F)cc3)cc2C1=O
  FGF22 binding: i

C[C@@H]1CN([C@@H](C)CO)C(=O)Cc2cc(NS(=O)(=O)c3cn(C)cn3)ccc2O[C@H]1CN(C)Cc1ccc2c(c1)OCO2
  FGF22 binding: i

C[C@@H](NC(=O)C[C@@H]1C=C[C@@H](NC(=O)C2CCC2)[C@@H](CO)O1)c1ccccc1
  FGF22 binding: i

COc1ccccc1NC(=O)N1C[C@@H](O)COC[C@@H]2O[C@H](CC(=O)N3CCC(Cc4ccccc4)CC3)CC[C@H]21
  FGF22 binding: i

CN(C)CC#Cc1ccc([C@H]2[C@H]3CN(S(=O)(=O)c4ccccc4F)CCCCN3[C@H]2CO)cc1
  FGF22 binding: i

Cc1noc(C)c1S(=O)(=O)Nc1ccc2c(c1)C(=O)N([C@@H](C)CO)C[C@H](C)[C@H](CN(C)C(=O)C1CCCCC1)OCCCC[C@H](C)O2
  FGF22 binding: i

COc1ccccc1C(=O)N1C[C@@H]2[C@H](c3ccccc31)[C@H](CO)N2CC1CCCC1
  FGF22 binding: i

COCC(=O)N1CC(=O)N2[C@H](CO)[C@H](c3ccc(Br)cc3)[C@H]2C1
  FGF22 binding: +

C[C@H](CO)N1C[C@H](C)[C@@H](CN(C)S(=O)(=O)c2ccc(Cl)cc2)Oc2c(NS(=O)(=O)c3ccc(F)cc3)cccc2C1=O
  FGF22 binding: i

Cc1ccc(S(=O)(=O)N(C)C[C@@H]2Oc3c(NC(=O)NC4CCCCC4)cccc3C(=O)N([C@@H](C)CO)C[C@H]2C)cc1
  FGF22 binding: i

# Compound activity from PubChem.

# Only part of the results is shown. The share of hits here may be higher or lower than overall.
